AmpC inh no det – inhibitors of E. coli AmpC beta-lactamase without detergent; Potency, µM (titrated, usually from 28.7 µM), for the others: at the top dose activity change, negative = inhibition; 71,000 compounds, 1.8% hits; AmpC nitrocefin hydrolysis, absorbance 480 nm, no detergent; potencies from a single point are estimates; P00811; active = falling curve, for most hits resting on a single point; inconclusive = weak or doubtful change; inactive = flat or rising curve; also: % of control where 0% means no effect; about half of the hits show no inhibition at the top dose; a quarter of the inactives give rising signals
Target sequence (P00811 whole entry, looked up): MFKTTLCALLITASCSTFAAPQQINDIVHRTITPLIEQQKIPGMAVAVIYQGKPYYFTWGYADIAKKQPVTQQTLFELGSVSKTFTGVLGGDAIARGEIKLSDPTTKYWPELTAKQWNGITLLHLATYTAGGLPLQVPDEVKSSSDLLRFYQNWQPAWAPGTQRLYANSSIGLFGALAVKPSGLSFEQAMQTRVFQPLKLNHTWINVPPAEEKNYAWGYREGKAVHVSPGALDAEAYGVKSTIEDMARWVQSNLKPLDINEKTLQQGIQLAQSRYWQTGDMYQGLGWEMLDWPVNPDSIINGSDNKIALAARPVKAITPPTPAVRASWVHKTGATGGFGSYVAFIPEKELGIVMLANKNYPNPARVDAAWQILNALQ
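AmpC, 20 mM phosphate pH 7.0; 15 min cpd preinc, RT; start with nitrocefin (800 uM stock); A480 kinetic read, 20 s intervals, 4 min. No-enzyme wells = negative control.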
* = called active by the depositor; ? = inconclusive; [ ] = remark or other dose. Potency is read from the fitted curve at half-maximal effect.

SMILES	AmpC inh no det
COc1cc(-c2noc(C3CCCN(S(=O)(=O)c4cccc(Cl)c4)C3)n2)cc(OC)c1OC (centres undefined)	84.6%
O=C(O)Cc1cc2c(s1)CCCCC2	8.0%
Cn1cccc1Cc1nnc(SCC(=O)Nc2cccc(F)c2)n1-c1ccc(F)cc1	76.3%
CCOc1ccc(NC(=O)C2CCC(C)(C(=O)O)C2(C)C)cc1 (centres undefined)	-5.3%
Cn1c(=O)c(-c2cccs2)nc2cnc(Oc3ccccc3)nc21	-4.1%
O=C(CSc1nnc(Cc2ccccc2)n1-c1ccc(F)cc1)N1CCOCC1	85.4%
Fc1ccc(Nc2nc(Oc3ccc4c(c3)OCO4)nc(N3CCOCC3)n2)c(F)c1	-4.3%
O=C(CCNC(=O)Cn1ccc2ccccc2c1=O)NCCCN1CCN(c2ccc(F)cc2)CC1	45.6%
O=C1C(=O)c2ccccc2C(O)=C1C(C1=C(O)c2ccccc2C(=O)C1=O)c1ccc(Cl)cc1	-3.4%[5.75 µM]
O=C(NCC(=O)N1CCCC1)c1cccs1	3.9%
O=C(c1cc2nc(-c3ccco3)cc(C(F)(F)F)n2n1)N1CCN(c2ccccn2)CC1	109.5%
CC1=C(C(=O)Nc2ccccc2)C(c2cccs2)C(C#N)=C(SCC#N)N1 (centres undefined)	25.6%
COc1ccccc1CNC(=O)N[C@@H](Cc1ccccc1)C(=O)O	-15.4%
FC(F)(F)c1nnc2sc(-c3ccco3)nn12	-0.2%
OCCNCCCCOc1ccccc1F	4.3%
O=C(CCn1c(=O)sc2ccccc21)Nc1ccon1	-15.7%
O=C(O)CCNS(=O)(=O)c1ccccc1	-6.6%
COc1cccc(N(CC(=O)N2CCN(C)CC2)S(=O)(=O)c2ccccc2)c1	14.3%
Cc1ccc(S(=O)(=O)N2CCN(C(=O)CN3CCOCC3)C2)cc1	0.7%
Cc1ccc(-c2nnc(N3CCN(C(=O)CN4CCOCC4)CC3)c3ccccc23)cc1	104.8%
Cc1ccccc1S(=O)(=O)Cc1ccc(C(=O)N2CCN(c3ncccn3)CC2)o1	39.2%
CC1CCCN(C(=O)CNC(=O)Cn2ccc3ccccc3c2=O)C1 (centres undefined)	-1.5%
CCOC(=O)CSc1n[nH]c(-c2cccnc2)n1	-8.2%
O=C(C1CC1)N1CCc2cc(Br)cc(S(=O)(=O)NCc3ccco3)c21	-12.6%
CCCC/C=C/C(NC(=O)c1ccco1)c1ccccc1 (centres undefined)	?
O=C(O)c1cc(=O)[nH]c(SCc2ccccc2)n1	8.1%[5.75 µM]
CCCP(=O)(CC(=O)O)c1ccccc1 (centres undefined)	6.4%
CN(C)Cc1ccccc1-c1cc(N(C)Cc2ccco2)ncn1	13.9%
C=CCn1c(COc2cccc3cccnc23)nnc1SCC(=O)OC	15.3%
O=C(Cn1c(CC(=O)N2CCOCC2)nc2ccccc21)Nc1ccc2c(c1)OC(F)(F)O2	71.6%
N#Cc1c(NCc2ccccc2)ccnc1NCc1cccnc1	20.8%
COc1ccc(-c2nc3cnc(Nc4ccccc4)nc3n(CCC#N)c2=O)cc1	6.7%
CCOC(=O)c1ccc(COC(=O)c2ccc(-c3nnc(-c4ccccc4)o3)cc2)o1	48.5%
O=C(Nc1cnn(Cc2ccc(F)cc2)c1)c1cc2nc(-c3ccco3)cc(C(F)(F)F)n2n1	69.8%
C=CCN1C[C@H](C)N([C@H](c2ccc(C(=O)N(CC)CC)cc2)c2cccc(OC)c2)C[C@H]1C	29.1%
O=C(O)CNC(=O)CC12CC3CC(CC(C3)C1)C2	-2.9%
Cc1cccc(C)c1OCC(=O)NCc1nnc(SCC(=O)NC2CCCCC2)n1C	67.2%
CC(=O)c1c(OC(=O)c2ccco2)c2ccccc2n1C	4.9%
COc1ccc(S(=O)(=O)N(CC(=O)O)c2ccccc2)cc1	-4.2%
Cc1nc(SCC(=O)c2ccc(F)cc2)n[nH]1	3.8%
Cc1ccc(C)c(NC(=O)Cn2nc(C)c3ccccc3c2=O)c1	22.8%
CCCOc1cccc(C2/C(=C(/O)c3ccc(OC)cc3)C(=O)C(=O)N2CCN(C)C)c1 (centres undefined)	25.3%
CCCS(=O)(=O)N1CCN(C(=O)c2cccs2)CC1	-16.2%
O=C(Cn1nnc(-c2cccc(C(F)(F)F)c2)n1)N1CCOCC1	22.4%
COC(=O)[C@@]1(Cc2ccc(F)cc2)[C@H]2c3cc(C(=O)N4CCCC4)n(CCO)c3C[C@H]2CN1C(=O)c1ccccc1	195.4%
O=C(CCCc1nc(-c2ccccc2Cl)no1)NC1CCCCC1	38.6%
CCCCn1nc(C(=O)O)ccc1=O	-8.3%
CCc1nnc2sc(-c3ccc(NC(=O)c4ccc5c(c4)OCCO5)cc3)nn12	26.4%
CCC/C=C(\CCC)C(NS(=O)(=O)c1ccc(C(F)(F)F)cc1)c1ccc(C(=O)OC)cc1 (centres undefined)	12.6µM*
Cc1nn(C)c(C)c1NC(=O)c1ccnn1C	-1.4%
O=c1[nH]cnc2c1N1CCC2CC1	-7.9%
COc1ccc(N(CC(=O)O)S(C)(=O)=O)cc1OC	-0.4%
O=C(Nc1ccc(Cl)cc1)c1cc2nc(-c3ccco3)cc(C(F)(F)F)n2n1	91.7%
Cc1nnc(SCC(=O)Nc2nsc(-c3ccccc3)n2)s1	-11.5%
CCOC(=O)CC1=C(C(=O)OCC)C2(C(=O)N1)C(C(=O)OC)=C(N)Oc1ccccc12 (centres undefined)	32.0%
COc1ccc(Cn2nnnc2CN2CCc3ccccc32)cc1	-7.3%
COc1cc(-c2c(C#N)c(=O)[nH]c3c2c(C)nn3-c2ccccc2)ccc1O	?
C=CCN(c1ccc(C(=O)N2CCN(c3ccc(F)cc3)CC2)cc1)S(C)(=O)=O	95.4%
COc1ccc(C2NC(=O)c3n[nH]c(C)c32)c(OC)c1 (centres undefined)	0.6%
O=C(NC1CCCCCCC1)C1CCN(c2nc3ccccc3o2)CC1	61.6%
(next part)
SMILES	AmpC inh no det
CCOC(=O)c1c(C2CCN(C(=O)OCC)CC2)nc2ccccn12	132.4%
Cn1cc(C(=O)N2CCN(C(=O)c3ccco3)CC2)c2c3ccccc3n(C)c2c1=O	69.2%
COc1ccc(NC(=O)NCCCN2CCCC2=O)cc1	3.98µM*[single pt active]
CC(C)n1c(SC2CCOC2=O)nc2ccccc21 (centres undefined)	0.7%
CCc1nc(OCc2ccco2)c2sc3nc4c(cc3c2n1)COC(C)(C)C4	99.4%
O=C(CN(C(=O)CCC(=O)Nc1ccccn1)c1ccc2c(c1)OCO2)NCc1ccco1	18.9%
CCn1c(SCC(=O)Nc2cc(C)on2)nnc1-c1ccncc1	-1.3%
Cn1c(=O)c2cc(S(=O)(=O)NCCC(=O)Nc3ccc(Cl)cc3)ccc2n(C)c1=O	3.8%
Cc1ccc(S(=O)(=O)N2CCCSCC2)cc1	4.0%
Cc1ccc(Cn2c(-c3nonc3N)nc3ccccc32)cc1	-14.0%
CC(C)C[C@@H](CC(=O)N[C@@H](CCC(=O)O)CC(=O)O)NC(=O)[C@@H]1CCCC[C@H]1NC(=O)C[C@@H](NC(=O)C[C@H](Cc1ccccc1)NC(=O)[C@@H]1CNCC[C@H]1N)C(C)C	73.8%
COC(=O)CSc1nnc(-c2ccc(S(=O)(=O)NCc3cccs3)cc2)o1	-11.5%
COc1ccc(C)cc1NC(=O)C1CCCCC1C(=O)O (centres undefined)	-3.9%
CC(=O)CCC(=O)NCCc1ccccc1F	1.2%
Cc1ccc(NC(=O)c2cccc(Cl)c2)nc1	-20.5%
Cc1ccc(C)c(NS(=O)(=O)c2c(C)nn(C)c2C)c1	116.7%
O=C(C1CCCN(S(=O)(=O)c2cccnc2)C1)N1CCn2c1nc1ccccc12 (centres undefined)	20.7%
CN1CCN(Cc2c(O)ccc3occ(C(=O)c4ccccc4)c23)CC1	20.9%
O=C(NCC(O)c1ccccc1)c1cccc(S(=O)(=O)N2CCOCC2)c1 (centres undefined)	-2.2%
CC(Cc1ccccc1)C(=O)N1CCN(C)CC1 (centres undefined)	-3.8%
CN(C)C(=O)c1ccc(-c2ccc3ncnc(N4CCOCC4)c3c2)cc1	0.6%
CNCCNS(=O)(=O)c1cccc2cnccc12	6.6%
Cc1ccc2nc(NC3=NCN(Cc4ccc5c(c4)OCO5)CN3)nc(C)c2c1	-6.9%
Nn1c(COc2ccccc2)nnc1SC(F)F	2.2%
COc1ccc(C2C(C(=O)c3ccco3)=C(O)C(=O)N2Cc2cccnc2)cc1OC (centres undefined)	-2.8%
CC1(C)CC(=O)C2=C(C1)N1CCCCC1CC2=O (centres undefined)	2.7%
COC(=O)c1nnn(CC(=O)Nc2ccc(C)c(F)c2)c1C(=O)OC	-1.4%
O=C(O)C1CCCCN1S(=O)(=O)c1ccc(Cl)s1 (centres undefined)	-6.6%
Cc1ccc(C(=O)CSc2nnc(-c3ccco3)n2Cc2ccccc2)cc1	82.1%
Cc1sc2ncnc(N3CCN(c4ncccn4)CC3)c2c1C	78.9%
CS(=O)(=O)N(CC(=O)Nc1ccc2c(c1)OCO2)c1ccc(Cl)cc1	-2.1%
O=C(Nc1ccc2c(c1)OCCO2)c1cnc2n(c1=O)CCS2	1.1%
CN(C)c1ccc(NC(=O)CCCc2ccccc2)cc1	-3.7%
Cc1ccc2nsnc2c1S(=O)(=O)N(Cc1ccco1)Cc1cc2cccc(C)c2[nH]c1=O	19.8%
CC(=O)Nc1ccc(N2CCN(C(=O)c3cccs3)CC2)cc1	-3.3%
CCN(CC(=O)Nc1ccc2c(c1)OCCO2)Cc1cc(=O)oc2c(C)c(C)ccc12	82.2%
O=C1c2ccccc2C(=O)N1CCN1CCCCC1	-3.6%
Cc1cc(=O)cc(C)[nH]1	1.3%
Nc1nc2ncc(CNc3ccc(C(=O)N[C@@H](CCC(=O)O)C(=O)O)cc3)nc2c(=O)[nH]1	-4.4%[12.8 µM]
COCCN(CC(=O)Nc1ccccc1C)S(=O)(=O)c1ccc(S(=O)(=O)N2CCCC2)cc1	-4.9%

6 entries drawn at random from those above:
SMILES	AmpC inh no det
O=C(O)C1CCCCN1S(=O)(=O)c1ccc(Cl)s1 (centres undefined)	-6.6%
O=C1c2ccccc2C(=O)N1CCN1CCCCC1	-3.6%
CNCCNS(=O)(=O)c1cccc2cnccc12	6.6%
Nc1nc2ncc(CNc3ccc(C(=O)N[C@@H](CCC(=O)O)C(=O)O)cc3)nc2c(=O)[nH]1	-4.4%[12.8 µM]
COc1ccc(C2C(C(=O)c3ccco3)=C(O)C(=O)N2Cc2cccnc2)cc1OC (centres undefined)	-2.8%
Cc1sc2ncnc(N3CCN(c4ncccn4)CC3)c2c1C	78.9%

Next records follow:
SMILES	AmpC inh no det
COc1ccc(-c2nnc3sc(C(C)N4C(=O)c5ccccc5C4=O)nn23)cc1 (centres undefined)	118.1%
CC1CCCCC1NS(=O)(=O)c1ccc(S(=O)(=O)NCc2ccncc2)cc1 (centres undefined)	14.9%
CCC1(CC)Cc2ccccc2C(N)=C1C#N	-18.3%
O=S(=O)(c1ccc(S(=O)(=O)N2CCN(C/C=C/c3ccccc3)CC2)cc1)N1CCCC1	2.8%
CCC(C)Sc1nc2c(c(=O)[nH]c(=O)n2C)n1CCc1ccccc1 (centres undefined)	33.1%
c1ccc2c(c1)ccc1ncccc12	-7.4%
COc1ccc(CN2CCN(S(=O)(=O)c3ccc(NC(C)=O)cc3)CC2)cc1OC	73.3%
Cc1csc(=Nc2c(C)n(C)n(-c3ccccc3)c2=O)n1Cc1ccccc1	53.9%
COc1ccc(C(=O)N2CCN(S(=O)(=O)c3cc(Cl)ccc3OC)CC2)cc1	136.3%
O=C(CN(C1CCCCC1)S(=O)(=O)c1ccc(F)cc1)NCc1ccncc1	24.3%
O=C(Nc1cnn(Cc2ccc(Cl)cc2Cl)c1)c1cc(-c2cccs2)on1	?
C=CCOc1ccccc1CNCc1cccnc1	13.2%
Cc1ccc(C)c(S(=O)(=O)NCCOC(=O)Nc2sc(=S)n(C)c2C)c1	-0.3%
Cc1cccc(C(=O)N2CCN(Cc3ccc4c(c3)OCO4)CC2)c1	73.6%
CN(c1ccccc1)S(=O)(=O)c1cccc(C(=O)N2CCN(c3ccccn3)CC2)c1	107.2%
Cc1cc(C(C)(C)C)cc(C)c1COC(=O)C1CCC(=O)N1 (centres undefined)	73.9%
Nc1nc(-c2ccco2)nc(N2CCCCC2)n1	0.0%
O=C1CC(N2CCN(C3CCc4ccccc4C3)CC2)C(=O)N1c1ccccc1 (centres undefined)	28.0%
O=C(NCCN1CCC(Cc2ccccc2)CC1)C1CCCN(S(=O)(=O)c2cnc[nH]2)C1 (centres undefined)	3.98µM*[single pt active]
COCCN(CC(=O)NCc1ccc(F)cc1)C(=O)CCC(=O)Nc1nccs1	0.6%
COc1ccccc1NC(=O)N(Cc1ccco1)Cc1cc2c(C)ccc(C)c2[nH]c1=O	48.7%
COc1ccccc1NC(=O)CN1C(=O)C2(OCCCO2)c2ccccc21	7.5%
CC1Cc2ccccc2N1C(=O)CCNS(=O)(=O)c1cccc2nsnc12 (centres undefined)	2.5%
CCOc1cc2[nH]c(=O)n(CCCCC(=O)NCc3ccco3)c(=O)c2cc1OCC	52.5%
CC1CCCCN1C(=O)CSc1nc2ccccc2n1CC(=O)N1CCc2ccccc21 (centres undefined)	78.8%
COc1ccc(-c2noc(CCC(=O)Nc3cccc(C)c3)n2)cc1	-5.8%
Cc1ccc(-c2noc(CCC(=O)NCCc3ccccc3Cl)n2)cc1	13.9%

Ordered by length of the SMILES (descending): some entries from above
SMILES	AmpC inh no det
CC1CCCCN1C(=O)CSc1nc2ccccc2n1CC(=O)N1CCc2ccccc21 (centres undefined)	78.8%
COCCN(CC(=O)NCc1ccc(F)cc1)C(=O)CCC(=O)Nc1nccs1	0.6%
CC1Cc2ccccc2N1C(=O)CCNS(=O)(=O)c1cccc2nsnc12 (centres undefined)	2.5%
COc1ccccc1NC(=O)CN1C(=O)C2(OCCCO2)c2ccccc21	7.5%
Cc1ccc(-c2noc(CCC(=O)NCCc3ccccc3Cl)n2)cc1	13.9%

Screening results: PubChem, National Center for Advancing Translational Sciences (NCATS)

Not all compounds are listed. The share of hits here may be higher or lower than overall.
